# From PubChem
# KCNQ2 block: KCNQ2 channel blockers in CHO-K1 cells – cell-based, FluxOR thallium flux, B-score, primary screen (AID 2156) | O88943 | 20 min; stronger effect = lower value; only compounds with negative scores are shown here; some inactives read as strong as hits | B-score at 10 µM | 1.1% of 310,000 active;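 active = fluorescence ratio B-score at most minus 3 library SDs, with starting brightness B-score within 2 library SDs, cut at about -5.5 in these data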
# Target sequence (O88943 whole entry, looked up): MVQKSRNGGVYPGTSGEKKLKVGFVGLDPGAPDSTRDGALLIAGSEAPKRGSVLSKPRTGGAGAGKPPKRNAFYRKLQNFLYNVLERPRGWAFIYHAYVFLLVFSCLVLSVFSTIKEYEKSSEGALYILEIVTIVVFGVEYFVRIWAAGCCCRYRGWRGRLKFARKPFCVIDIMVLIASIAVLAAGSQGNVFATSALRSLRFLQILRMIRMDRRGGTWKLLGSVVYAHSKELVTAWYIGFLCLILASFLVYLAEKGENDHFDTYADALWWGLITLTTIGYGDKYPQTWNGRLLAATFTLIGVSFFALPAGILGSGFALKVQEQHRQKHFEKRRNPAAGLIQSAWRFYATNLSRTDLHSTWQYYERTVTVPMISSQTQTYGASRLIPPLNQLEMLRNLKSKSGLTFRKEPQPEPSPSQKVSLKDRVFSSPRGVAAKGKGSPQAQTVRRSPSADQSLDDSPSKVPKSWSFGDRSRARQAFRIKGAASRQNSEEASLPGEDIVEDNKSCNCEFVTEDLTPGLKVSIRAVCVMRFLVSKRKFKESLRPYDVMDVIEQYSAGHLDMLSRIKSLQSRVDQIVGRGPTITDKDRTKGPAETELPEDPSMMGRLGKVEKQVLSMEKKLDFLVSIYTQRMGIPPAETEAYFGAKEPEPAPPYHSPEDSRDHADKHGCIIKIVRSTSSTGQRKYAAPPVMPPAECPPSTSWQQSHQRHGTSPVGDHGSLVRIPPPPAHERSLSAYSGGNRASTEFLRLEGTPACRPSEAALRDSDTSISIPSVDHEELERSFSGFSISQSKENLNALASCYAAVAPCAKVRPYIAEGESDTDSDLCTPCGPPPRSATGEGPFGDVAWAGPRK
# KCNQ2 block baseline: second read-out of KCNQ2 block, no call of its own (marks repeat the call); B-score; measured here: initial fluorescence intensity artifact check;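 brightness before thallium and not channel activity; 0 = typical well and far values either way flag optical interference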
# * marks the source's active call; other numbers are inactive results; i = inactive. Some of the compounds tested; rates above refer to the full screens.
# Preview (16 entries):
SMILES,KCNQ2 block,KCNQ2 block baseline
COc1ccc(NC(=O)N2CCN(S(C)(=O)=O)CC2)c(OC)c1,i,-0.28
C/C(=N/NC(=O)OC(C)(C)C)c1ccco1,i,1.5
Cc1nn2c(N)c(-c3ccccc3)cnc2c1-c1ccccc1,i,0.58
O=C(NCC(=O)N1CCCCCC1)c1ccc(Br)cc1,i,-0.45
CC1CC1C(=O)OCC(=O)c1c(N)n(C)c(=O)n(C)c1=O (stereo not drawn),i,0.85
CCOC(=O)N1CCC(N2CCN(S(=O)(=O)c3ccc(Cl)cc3)CC2)CC1,i,1.4
Cc1ccc(OCc2nnc(SCC(=O)Nc3cc(C)on3)n2C)cc1,i,-0.42
Cc1cc(C)nc(SCCN2CCOCC2)n1,i,0.67
O=[N+]([O-])c1cccnc1N1CCC(c2cc(-c3ccc(Cl)cc3)n[nH]2)CC1,i,-1.5
CCc1ccc(/C=C2/C(=O)N(C)C(=S)N2CC(=O)OC)s1,-6*,-0.74*
O=C(Nc1ccc(S(=O)(=O)N2CCOCC2)cc1)c1cc([N+](=O)[O-])ccc1Cl,i,-1.1
Cc1nnc(N2CCCC(C(=O)Nc3cc(F)ccc3F)C2)c2nn(-c3ccccc3)c(C)c12 (stereo not drawn),i,2.4
COc1ccc(-c2[nH]ncc2-c2csc(C)n2)c(O)c1,i,-0.02
COc1cc(NC(=O)CCCC(=O)OCC(F)(F)C(F)F)nc(OC)n1,i,0.4
CCOc1ccc(/C=C(\C#N)C(=O)c2c(C)[nH]c3ccccc23)cc1OC,i,-1
Nc1nnn(CC(=O)N/N=C/c2ccco2)n1,i,-1

# The whole of this part, previewed entries included:
SMILES,KCNQ2 block,KCNQ2 block baseline
COc1ccc(NC(=O)N2CCN(S(C)(=O)=O)CC2)c(OC)c1,i,-0.28
C/C(=N/NC(=O)OC(C)(C)C)c1ccco1,i,1.5
Cc1nn2c(N)c(-c3ccccc3)cnc2c1-c1ccccc1,i,0.58
O=C(NCC(=O)N1CCCCCC1)c1ccc(Br)cc1,i,-0.45
CC1CC1C(=O)OCC(=O)c1c(N)n(C)c(=O)n(C)c1=O (stereo not drawn),i,0.85
CCOC(=O)N1CCC(N2CCN(S(=O)(=O)c3ccc(Cl)cc3)CC2)CC1,i,1.4
Cc1ccc(OCc2nnc(SCC(=O)Nc3cc(C)on3)n2C)cc1,i,-0.42
Cc1cc(C)nc(SCCN2CCOCC2)n1,i,0.67
O=[N+]([O-])c1cccnc1N1CCC(c2cc(-c3ccc(Cl)cc3)n[nH]2)CC1,i,-1.5
CCc1ccc(/C=C2/C(=O)N(C)C(=S)N2CC(=O)OC)s1,-6*,-0.74*
O=C(Nc1ccc(S(=O)(=O)N2CCOCC2)cc1)c1cc([N+](=O)[O-])ccc1Cl,i,-1.1
Cc1nnc(N2CCCC(C(=O)Nc3cc(F)ccc3F)C2)c2nn(-c3ccccc3)c(C)c12 (stereo not drawn),i,2.4
COc1ccc(-c2[nH]ncc2-c2csc(C)n2)c(O)c1,i,-0.02
COc1cc(NC(=O)CCCC(=O)OCC(F)(F)C(F)F)nc(OC)n1,i,0.4
CCOc1ccc(/C=C(\C#N)C(=O)c2c(C)[nH]c3ccccc23)cc1OC,i,-1

# 2 entries from above, set out differently.
# Values in the order: KCNQ2 block	KCNQ2 block baseline
C/C(=N/NC(=O)OC(C)(C)C)c1ccco1
 : i	1.5
Cc1nnc(N2CCCC(C(=O)Nc3cc(F)ccc3F)C2)c2nn(-c3ccccc3)c(C)c12 (stereo not drawn)
 : i	2.4

# Continued:
SMILES,KCNQ2 block,KCNQ2 block baseline
Nc1nnn(CC(=O)N/N=C/c2ccco2)n1,i,-1
Cc1ccc(-n2ncc3c2CCCC3NC(=O)CCN2CCCC2=O)cc1C (stereo not drawn),i,0.67
CCc1nn(C)c(N)c1C,i,-0.72
CC1Cc2cc(/C=C3/SC(=S)N(C)C3=O)ccc2O1 (stereo not drawn),i,0.2
COc1ccc(-c2nc(N)nc(C)c2-c2ccc(Cl)cc2)c(O)c1,i,-1.6
NC(=O)CC(NC(=O)c1ccc(Br)cc1)c1ccc(N2CCN(c3ccccn3)CC2)c([N+](=O)[O-])c1 (stereo not drawn),i,2.2
O=C(NCC1CCCO1)c1ccc2c(=O)n(CC3CCCO3)c(SCC(=O)N3CCCC3)nc2c1 (stereo not drawn),i,0.01
CCOC(=O)N1CCN(C(=O)CN(C2CCCCC2)S(=O)(=O)c2ccc(Cl)cc2)CC1,i,-1.3
O=C1N=c2ccc(Br)cc2=C1c1sc(=O)[nH]c1O,i,-0.41
CC1CCCC(C)N1C(=O)Cn1c(SCC(=O)Nc2ccc3c(c2)OCO3)nc2ccccc21 (stereo not drawn),i,-2.1
CCOc1ccc(C(=O)Nc2cccc(-c3cc4ccccc4oc3=O)c2)cc1[N+](=O)[O-],i,0.67
COc1cc(OC)cc(C(=O)Nc2ccc3nc4n(c(=O)c3c2)CCCC4)c1,i,0.1
O=C(c1ccc2c(c1)OCO2)N(CC1CCCO1)C1(C(=O)NC2CCCCC2)CCCCC1 (stereo not drawn),i,-0.27
Cc1cccc(OCc2nnc(SCC(=O)N3c4ccccc4Sc4ccc(Cl)cc43)o2)c1,i,2.4
CCc1ccccc1NC(=O)CNC(=O)c1cccc(S(=O)(=O)N2CCN(Cc3ccccc3)CC2)c1,i,-1.4
Cc1ccc(C)c(OCCC(=O)NNC(=O)c2ccncc2)c1,i,1.4
Cc1ccc(S(=O)(=O)Nc2cc(C(=O)O)ccc2N2CCCCC2)cc1,i,0.18
NCCc1nnc(SCC(N)=O)o1,i,-0.08
O=Nc1c2nc3ccccc3n(O)c-2c2ccccc12,i,0.04
CCOc1cc(NC(=O)c2ccco2)c(OCC)cc1NC(=O)CCc1ccccc1OC,i,-0.94
CCc1cccc(CC)c1-n1c(SCc2cc(=O)n3ccsc3n2)nnc1-c1cccnc1,i,0.01
Cc1ccc(OCCn2c(C3CC(=O)N(Cc4ccccc4)C3)nc3ccccc32)cc1 (stereo not drawn),i,-2
Cc1onc(-c2c(F)cccc2Cl)c1C(=O)c1ccccc1O,i,-0.02
COc1ccc(CCNC(=O)Cn2c(=O)n(Cc3ccco3)c(=O)c3ccc(Cl)cc32)cc1OC,i,1.3
O=C(NCCc1ccccc1)C1CCN(S(=O)(=O)c2cccs2)CC1,i,0.14
O=S(=O)(NC1CCCCCC1)c1ccc(Br)s1,i,-0.36
CC(=C1C(=O)c2ccccc2C1=O)N1CCN(C/C=C/c2ccccc2)CC1,i,-0.97
Cc1cccc(C)c1NC(=O)N1CCCC1C(=O)Nc1ccc(-n2cnnn2)cc1 (stereo not drawn),i,-0.26
COc1cc(SC#N)ccc1N=Cc1c(C)[nH]n(-c2cccc3ccccc23)c1=O,i,-0.52
CC(C)(C)CC(C)(C)NCC(O)COCCOc1ccc(Br)cc1 (stereo not drawn),i,-0.41
CCOc1ccc(NC(=O)CCN2CCN(S(=O)(=O)c3ccc(OC)cc3)CC2)cc1,i,0.76
O=C1CN=C(Nc2ccccc2Cl)N1c1ccccc1,i,-0.57
COCC(=O)Nc1cc(C)cn(Cc2ccccc2Cl)c1=O,i,2.3
Fc1ccc(N2N=C(c3cccs3)CC2c2ccco2)c(F)c1 (stereo not drawn),i,0.24
Cc1ccc(C(=O)N2CCN(c3cnn(C)c(=O)c3Cl)CC2)cc1,i,-2.2
CC(C)OC(=O)c1nnc(Cc2ccc(Cl)cc2)o1,i,-0.62
CCCCN1CCCCC1C(=O)Nc1c(C)cc(C)cc1C (stereo not drawn),i,-2
Cc1oc(-c2ccc(Cl)cc2)nc1CN1CCCC(C(=O)NCc2ccco2)C1 (stereo not drawn),i,0.64
COC(=O)Cc1ccc2c3ccccc3n(C)c2c1,i,-0.03
CCOc1ccc2nc(NCCNC(=S)NCCCN(C)C)c(C#N)cc2c1,i,1.5
O=C(NCc1ccccn1)C1CCCCC1,i,2.2
CCn1c(Cl)c(C=O)s/c1=N\S(=O)(=O)c1ccccc1,i,3.9
CC(=O)Nc1ccc2nc(NS(=O)(=O)c3ccc(C)cc3)sc2c1,i,-0.76
O=C(NCCc1ccccc1)c1c(O)c2cccc3c2n(c1=O)CC3,i,-0.45
O=C(NNC(=S)NC(=O)c1cccs1)c1ccc(NC(=O)c2ccccc2)cc1,i,1.1
CCOC(=O)c1ccc(N2Cc3ccccc3C2=N)cc1,i,1.9
COCC1CCCCN1C(=O)C1CCN(c2nc(-c3ccccc3)nc3c2CCC3)CC1 (stereo not drawn),i,0.47
Cc1nc2nc(CNC(=O)OC(C)(C)C)nn2c(C)c1CCC(=O)Nc1ccc2c(c1)OCO2,i,0.49
S=c1[nH]nc(COc2ccccc2)n1C1CCCCC1,i,-1.1
O=C(c1ccccc1)c1ccccc1C(=O)N1CCN(C(=O)c2ccccc2)CC1,i,1.2
COc1ccc(S(=O)(=O)Nc2c(C(=O)O)[nH]c3ccccc23)cc1OC,i,-0.1
CC(C)(C)C(=O)NC1CCN(CC(=O)Nc2ccc3c(c2)OCO3)CC1,i,-0.01
COC(=O)c1ccc(Sc2nnnn2-c2ccccc2)c([N+](=O)[O-])c1,i,-0.55
CN1C(=O)c2ccccc2N(C)C1c1ccccc1Cl (stereo not drawn),i,0.65
COc1ccc2[nH]c(=O)c(CN(Cc3cccnc3)Cc3nnnn3CC3CCCO3)cc2c1 (stereo not drawn),i,-0.53
CCC(C)NC(=O)C1c2ccccc2C(=O)N1Cc1ccc(OC)cc1OC (stereo not drawn),i,-0.65
NNC(=O)c1ccc(COCC(F)(F)C(F)F)cc1,i,-2.4
CCc1cccc(CC)c1NC(=O)CN1CC(C)SC1=NC1CCCCC1 (stereo not drawn),i,-0.48
CS(=O)(=O)c1nc(S(=O)(=O)c2ccc(Cl)cc2)c(NCCN2CCOCC2)s1,i,0.75
CCCCNC(=O)c1ccc(C)c(NC(=O)C2=C(C)OCCS2)c1,i,0.54
# Further results
SMILES,KCNQ2 block,KCNQ2 block baseline
CCCC[C@@H]1C[C@H]1[C@@H](NC(=O)c1cccs1)c1ccc(C(F)(F)F)cc1,-8.7*,-0.94*
COCCCNC(=O)Cn1cc2c(n1)CCCCC2,i,1.9
COc1cc(CNCCN2CCOCC2)ccc1OCc1cccc(Cl)c1,i,0.31
S=c1nc(-c2ccccc2)n(Cc2cccnc2)c2c1CCCC2,i,1.1
COc1ccc(/C=N/NC(=O)c2nc(-c3ccccc3)n(-c3ccccc3)n2)c(O)c1,i,0.39
CCOC(=O)C1CCCN(S(=O)(=O)c2cc(Br)cc3c2N(C(=O)C2CC2)CC3)C1 (stereo not drawn),i,1.4
CC(C)C1Nc2ccc(C(=O)NCc3ccco3)cc2NC1=O (stereo not drawn),i,0.23
O=C(Nc1ccccc1)c1ccc(=O)[nH]n1,i,-0.84
CSCCC(NC(=O)c1ccco1)C(=O)N1CC=C(c2ccccc2)CC1 (stereo not drawn),i,0.21
COc1cccc2c1c(NC(=O)Nc1ccc(F)cc1F)nn2C,i,-0.2
O=c1c(/C=N/N2CCOCC2)c(C(F)(F)F)[nH]n1-c1ccccc1,i,0.47
COc1ccc(N2CCN(C(=O)CCN3C(=O)c4ccccc4S3(=O)=O)CC2)cc1,i,-0.6
O=C(NC1CCCCCC1)C(=S)N1CCCC1,i,0.88
CCCCc1c(O)nc2n(c1=O)CCS2,i,-0.3
Cc1ccc(Cn2c(C(C)Nc3nc(-c4ccc(C)cc4)cs3)nc3cc(Cl)c(Cl)cc32)cc1 (stereo not drawn),i,-3.5
N#C/C(=C\c1ccc(Cl)cc1)c1n[nH]c(Cn2cncn2)n1,i,-0.41
CC(OC(=O)C1CCN(c2ccc(C(F)(F)F)cn2)CC1)C(=O)c1ccccc1 (stereo not drawn),i,-2.4
CCCCCOC(=O)C1[C@H]2C(=O)N(CCCOC)C[C@]23C=C[C@H]1O3 (stereo partly drawn),i,0.68
CC(C)=CC(=O)N1CCCC(N2CCN(c3ccc(F)cc3)CC2)C1 (stereo not drawn),i,-0.74
CN1CCN(C(=S)Nc2ccc(Oc3ccccc3)cc2)CC1,i,-0.77
Cc1cc(/C=N/n2cnnc2)c(C)n1-c1ccc2ncccc2c1,i,1.5
O=C(/C=C/c1ccc(O)cc1)c1ccc(O)cc1O,i,-0.26
Cc1ccc(NC(=O)CCC(=O)c2cccs2)nc1,i,1
O=C1/C(=C\Nc2ccc(OC(F)(F)F)cc2)CCN1c1ncccn1,i,-0.01
COc1ccc([C@H]2C=C3CN(C(=O)OC(C)(C)C)S(=O)(=O)[C@H]3C[C@H]2OC(=O)c2cccs2)cc1,i,0.97
O=C(Nc1scc(-c2ccccc2)c1C(=O)O)c1ccccc1F,i,-0.27
CCOC(=O)C1=NN(C(=O)Nc2cccc(C(F)(F)F)c2)C2C(=O)N(c3cccc(C(F)(F)F)c3)C(=O)C12 (stereo not drawn),i,-2.6
Cc1cccc(OCCN2C(=O)C(=O)c3cc(C)ccc32)c1,i,-0.69
COc1cccc(C2/C(=C(/O)c3ccc4c(c3)CC(C)O4)C(=O)C(=O)N2CCCn2ccnc2)c1 (stereo not drawn),i,1.2
CSCCC(NC(=O)c1ccco1)C(=O)Nc1ccc(C)c(S(=O)(=O)N2CCOCC2)c1 (stereo not drawn),i,-0.7
CN(C)C=NC(=O)c1[nH]c2ccc(Cl)cc2c1-c1ccccc1,i,-0.99
COc1ccccc1C1OC2=C(Nc3ccc([N+](=O)[O-])cc3N2)C1=O (stereo not drawn),i,-0.06
Cc1ccccc1NS(=O)(=O)c1cc(C(=O)N2CCc3ccccc3C2)ccc1C,i,0.09
Cc1ccc(S(=O)(=O)NCC(=O)N(CC(=O)NCc2ccc(F)cc2)CC2CCCO2)cc1 (stereo not drawn),i,1.9
Clc1ccc(C2=Nn3c(nnc3-c3cccs3)SC2)cc1,i,0.05
CCN(C(=O)CSc1nnc(NCc2ccccc2)s1)C1CCS(=O)(=O)C1 (stereo not drawn),i,0.71
CCCc1cc(=O)[nH]c(-n2[nH]c3c(c2=O)CCCC3)n1,i,-0.41
CCOc1ncccc1C(=O)OCC(=O)Nc1cc(S(=O)(=O)N2CCOCC2)ccc1Cl,i,-0.62
Cc1nn(C(C)(C)C)c(OC(=O)c2ccc(Br)o2)c1Sc1ccccc1,i,-0.28
N#Cc1cccc(NC(=O)CSc2n[nH]c(=O)[nH]c2=O)c1,i,-1.3
CC(C)(C)n1nc2c(c1NC(=O)c1cccc(Cl)c1)CS(=O)(=O)C2,i,-0.93
